Screening results (PubChem)
Sa growth 42C: S. aureus growth inhibition. S. aureus RN4220 growth, OD600, 20 h, 42 °C; active compounds read low. relative growth, % (test concentration not listed). 0.53% of 170,000 active. AID 720641;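 active = growth at 42 °C up to 50% and 20 or more points under that at 30 °C, or under 10% at both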;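 also: 300 nL library stock went into each well; scaled to the means of positive and negative controls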
HCMV UL50-53 inh: disrupts HCMV UL50-UL53 complex binding | inhibition, % (no concentration beside the values) | AID 1918969 | HTRF UL50-UL53 interaction, normalized percent inhibition | 0.15% of 190,000 active;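 active = both replicates at 50% or more, plus weaker picks with an unusually low signal ratio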;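 also: stock transfer was 100 nL into about 20 µL; 0% = negative control wells and 100% = wells with untagged competitor protein; inactives centre near -12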
GIV-Gai inh: inhibitors of GIV GBA-motif binding to rat Galpha-i3 | percent of control (FP), % (test concentration not listed) | AID 1224905 | Galpha-i3/FITC-GIV peptide fluorescence polarization, 90 min; active compounds read low; scaled: aluminum fluoride 0%, vehicle 100% | 0.42% of 210,000 active | P08753;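 active = replicate mean at 85% of control or lower, very high polarization wells dropped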;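 also: lower values mean more displacement of the GIV peptide from Galpha-i3; wells of about 15 µL received 100 nL stock; the first replicate is given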
Target sequence (P08753 whole entry, looked up): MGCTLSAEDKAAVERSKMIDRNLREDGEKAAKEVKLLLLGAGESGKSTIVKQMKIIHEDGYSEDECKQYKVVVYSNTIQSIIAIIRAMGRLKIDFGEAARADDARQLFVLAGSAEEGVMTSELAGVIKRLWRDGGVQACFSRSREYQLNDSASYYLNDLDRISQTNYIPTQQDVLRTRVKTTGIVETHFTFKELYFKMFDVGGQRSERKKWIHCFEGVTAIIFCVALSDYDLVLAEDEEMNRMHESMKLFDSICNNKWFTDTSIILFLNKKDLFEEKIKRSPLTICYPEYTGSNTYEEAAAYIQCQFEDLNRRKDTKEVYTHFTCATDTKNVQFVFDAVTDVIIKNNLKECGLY
Sa growth 42C second temp: further read-out of Sa growth 42C, marked with its call; relative growth, %; measured here: growth at 30 °C;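 optical density after 20 h as mean of two plates; 100% = untreated growth and lower means inhibition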
The depositor's hits bear a star; / = not tested or not shown; & = joins results of further samples.

SMILES | Sa growth 42C | Sa growth 42C second temp | HCMV UL50-53 inh | GIV-Gai inh
COc1cc2c(cc1O)CC1c3c(c(OC)c(OC)c(OC)c3-2)CCN1C (stereo not given) | 94.4 | 74.4 | 10.5 | /
COc1cc2c(cc1OC)[C@@]13CCN4CC5=CCOC6CC(=O)N2C1[C@H]6[C@H]5C[C@H]43 (stereo not given in full) | 96.0 | 91.3 | -16.9 | /
O=C(COc1ccccc1)N1CCN(CC(O)COc2ccccc2)CC1 (stereo not given) | 101.9 | 101.0 | -26.5 | 102.9
O=C(O)Cc1cnc[nH]1 | / | / | -57.9 | 96.3
COc1nc(NCCC2=CCCCC2)nc(N2CC3CC(C2)c2cccc(=O)n2C3)n1 (stereo not given) | 115.9 | 74.2 | -11.9 | /
C1CNC2NCCNC2N1 (stereo not given) | 99.0 | 74.9 | -10.5 | 96.9
COc1cc(C=C2C(=O)NC(=O)NC2=O)ccc1OS(=O)(=O)c1ccccc1 | / | / | 60.2* | 89.5
O=C(CNC1CCCCC1)N1CCC2(CC1)OCCO2 | 95.7 | 86.1 | 26.2 | 105.8
CC1CN(Cn2nc(C(=O)O)c3ccccc32)CC(C)O1 (stereo not given) | 84.5 | 90.5 | -57.9 | /
NCCc1nc2ccccc2[nH]1 | 99.8 | 81.7 | -14.1 | /
COc1ccc(OC)c(/C=C2\C(=O)C3CCN2CC3)c1 | 116.6 | 93.8 | -26.8 | 108.0
CCC1=Nc2cc(C(=O)N3CCC4(CC3)OCCO4)ccc2Sc2ccccc21 | 111.7 | 85.2 | / | 101.8
O=C(Nc1ccc2c(c1)OCO2)c1cccn(Cc2ccc(F)cc2)c1=O | 142.8 | 85.2 | / | 100.8&106.2
CC(C)(C)C(=O)c1cn(CC(=O)NCc2ccco2)c2ccccc12 | 113.6 | 78.2 | -5.8 | 103.8
N#CC1(C(=O)O)CC2c3ccccc3C1c1ccccc12 (stereo not given) | 105.2 | 97.2 | -1.4 | 106.3
O=C(CSC1=NCCS1)Nc1ccc(Br)cc1C(=O)c1ccccc1Cl | 61.7 | 79.1 | -10.8 | /
Cc1cc([C@@H]2CCCN2C)on1 | / | / | 7.3 | 108.0
O=C(O)C(O)(c1ccc(Br)cc1)c1ccc(Br)cc1 | 110.0 | 96.6 | -8.7 | /
CC1CCC2C(C)C(=O)OC3OC4(C)CCC1C32OO4 (stereo not given) | 93.2 | 86.6 | -1.8 | 106.0
N#CC(C#N)=Cc1ccc(OC(F)F)cc1 | 61.9 | 80.9 | -14.0 | /
CCN(CC)C(=O)COCC1CCCN2CCCCC12 (stereo not given) | 91.9 | 96.4 | -5.4 | /
O=C(CCN1CCOCC1)NC=Nc1cccnc1 | 89.9 | 107.3 | -22.8 | /
CCN1CCC(N2CCCCC2)CC1 | 111.0 | 103.2 | -12.0 | 95.3
CN(C)C(=O)Oc1nnc(SCc2ccccc2)n1-c1cccc(Cl)c1 | 105.8 | 59.2 | -1.0 | 98.0
O=C(Nc1ccc2c(c1)OCO2)c1cccn(Cc2cccc([N+](=O)[O-])c2)c1=O | 117.0 | 92.5 | / | 101.8
COc1ccc(-c2nc(CN3C(=O)CN=C(c4ccccc4)c4ccccc43)c(C)o2)cc1 | 104.0 | 87.0 | 2.5 | 102.4
CN1CCCC(C(=O)c2ccccc2)C1 (stereo not given) | 72.0 | 94.9 | -21.6 | 93.6
N#CCCn1cc(C=C2C(=O)NC(=O)NC2=O)c(-c2ccccc2)n1 | 77.1 | 88.6 | -6.6 | /
Cc1cccc(NC2=NCC(C)S2)c1C (stereo not given) | 89.3 | 73.3 | -8.8 | /
O=C1NC(=O)C(=Cc2ccc(Br)cc2)C(=O)N1 | 113.2 | 87.2 | 7.7 | /
CCCCOc1ccc(C2C(C#N)=C(N)Oc3c2c(=O)oc2ccccc32)cc1OC (stereo not given) | / | / | -5.9 | 100.1
COc1ccc(-n2c(=S)[nH]c3ccccc3c2=O)cc1 | 92.4 | 83.3 | 0.6 | /
Nc1c(C(=O)NCC2CCCO2)c2nc3ccccc3nc2n1Cc1ccco1 (stereo not given) | 75.3 | 64.8 | -53.7 | /
O=c1c2ccccc2nc(/C=C/c2c[nH]c3ccccc23)n1-c1ccc(Cl)cc1 | / | / | 16.4 | 106.6
Cc1ccnc(NS(=O)(=O)c2ccc(N=Cc3c(O)n(C)c(=O)n(C)c3=O)cc2)n1 | 91.9 | 71.8 | -26.9 | 179.2
COc1cc2c(cc1OC)C(C(=O)NC(C)C)C1CCCCN1C2=O (stereo not given) | 104.2 | 87.5 | -3.4 | 101.1
O=C1NC(=S)NC(=O)C1=Cc1ccncc1 | 105.3 | 118.2 | 2.2 | 107.6
CN1C2C=C(N(C(=O)c3ccc(Cl)cc3)c3ccccc3)CC1CC2 (stereo not given) | 113.6 | 102.4 | / | 98.7
C#CC[N+]12CN3CN(CN(C3)C1)C2 | 85.6 | 46.7 | -77.0 | 109.7
c1cc(C2CCNCC2)ccn1 | 102.3 | 83.9 | -2.2 | 101.0
CNC(=O)Oc1ccc(NC2=C(C(=O)OC)CSC2)cc1 | 88.9 | 96.3 | -7.1 | 101.6
Cc1c(C(=O)N2CCC3(CC2)OCCO3)sc2ncnc(N(C)c3ccccc3)c12 | 95.9 | 83.5 | -6.6 | /
Cc1ccc2c(c1)N(C(=O)CCC(=O)N1CCC3(CC1)OCCO3)CC(C)O2 (stereo not given) | 94.7 | 82.7 | / | 103.7
C=CCSc1nnc(OC(=O)N(C)C)n1-c1cccc(C(F)(F)F)c1 | 112.3 | 88.5 | -5.2 | 96.8
CNC(=O)O/N=C1\CC(C)(C)Cc2csc(SC)c21 | 97.8 | 94.5 | -35.5 | 105.3
NC1=NC(=O)C(c2ccccc2)O1 (stereo not given) | 96.7 | 84.6 | -60.0 | /
CCOC(=O)C1C(=O)N(C)C2(C)CC1c1ccccc1O2 (stereo not given) | 97.0 | 83.9 | -27.0 | 100.6
OC(CNCC1CCCCC1)c1ccccc1 (stereo not given) | 80.3 | 91.0 | -4.2 | /
C=CCOC(=O)C1=C(C)OC(N)=C(C(=O)OCCOC)C12C(=O)Nc1ccccc12 (stereo not given) | / | / | 8.1 | 106.7
COc1ccc(NC(=O)CCc2nc(C3=CCN(Cc4cccc(Cl)c4)CC3)no2)cc1OC | 100.7 | 90.6 | / | 104.2
O=C(Nc1ccccc1C(F)(F)F)c1cccn(Cc2ccccc2)c1=O | 149.5 | 88.3 | / | 100.6
CC(C)C(C(=O)O)c1ccc(Cl)cc1 (stereo not given) | 109.8 | 104.3 | 2.6 | /
CCN1C(=O)NC(=O)/C(=C\c2cn(CC(=O)N3CCCC3)c3ccccc23)C1=O | 102.1 | 88.9 | / | 98.4
N=c1n(CCO)c2ccccc2n1Cc1ccccc1 | 94.0 | 74.8 | -3.4 | 102.6
CCN1C(=O)c2ccccc2Sc2ccc(C(=O)N3CCC4(CC3)OCCO4)cc21 | 98.3 | 79.6 | 2.1 | 102.2
CN(C)P1(N(C)C)=NC(C(F)(F)F)=NC(C(F)(F)F)=N1 | 109.3 | 96.2 | 2.8 | /
C[C@@H]1O[C@H](C[N+](C)(C)C)C[C@H]1O | / | / | -12.9 | 95.0
COc1cccc(N2C(=O)NC(=O)/C(=C\c3cc(OC)c(O)c(OC)c3)C2=O)c1 | / | / | -31.8 | 133.3
CCc1ccc(-n2nc(C)c3c2NC(=O)CSC3c2ccc(C(=O)OC)cc2)cc1 (stereo not given) | 105.2 | 86.2 | 5.3 | 98.9
Cc1cc(=O)oc2cc(OC(=O)N(C)C)c(Cl)cc12 | 111.5 | 96.1 | 5.9 | 99.5

(continued)
SMILES | Sa growth 42C | Sa growth 42C second temp | HCMV UL50-53 inh | GIV-Gai inh
O=C1CN=C(c2ccccc2Cl)c2cc(Cl)ccc2N1Cc1cccc(Cl)c1 | 96.0 | 96.6 | / | 107.8
CCN1CCN(Cc2ccc(NC(=O)CCc3nc(C4=CCN(C)CC4)no3)cc2)CC1 | 111.9 | 87.7 | -5.2 | 101.1
O=C(Nc1ccon1)c1cccn(Cc2cccc([N+](=O)[O-])c2)c1=O | 98.4 | 98.4 | / | 104.5
CCOc1ccc(NC(=O)CN2C(=O)CN=C(c3ccccc3)c3ccccc32)cc1 | / | / | -13.2 | 102.3
Cc1nc(-c2ccccn2)nc(NCCc2ccccc2)c1Cl | 150.3 | 57.5 | -1.2&-25.2 | 109.5
COc1ccc(NC(=O)N2Cc3ccccc3-n3cccc3C23CCN(C)CC3)cc1 | 100.1 | 90.0 | -18.6 | 108.3
COc1cccc(NC2=NC(C)(C)CS2)c1 | 85.3 | 84.7 | -0.2 | /
Cc1c(Br)c([N+](=O)[O-])nn1CC(=O)Nc1ccc(Cl)cc1C(=O)c1ccccc1 | / | / | -24.5 | 91.6
COc1ccc2c(c[n+](C)c3c4cc5c(cc4ccc23)OCO5)c1OC | / | / | -20.7&-4.7&-42.0 | 96.9
Cc1cc(Nc2ccc(N3CCCC3)cc2)n2c(nc3ccccc32)c1C#N | 85.6 | 80.2 | -41.1 | 101.0
c1csc(CNC2=NCCS2)c1 | 98.8 | 87.1 | -6.9 | /
CC(C)C1c2cccn2-c2ccccc2CN1C(=O)Nc1cccc(Br)c1 (stereo not given) | / | / | -17.4 | 101.2
Cc1ccc(S(=O)(=O)N[C@@H](CCCCN)C(=O)CCl)cc1 | / | / | -0.9&-0.9&-5.6 | 98.1
O=C(Nc1ccc2c(c1)OCCO2)c1cccn(Cc2ccccc2)c1=O | 129.8 | 97.3 | / | 102.5
Cc1nn(-c2cccc(Cl)c2)c2c1C(c1ccsc1)SCC(=O)N2 (stereo not given) | / | / | 9.6 | 103.9
O=P(O)(NC1CCCCC1)NC1CCCCC1 | 99.8 | 103.6 | 4.4 | /
CNc1ccc(C(=O)CC(O)CCC(C)C2OC(=O)CC(O)CC(=O)CC(O)CC(O)CC(O)CC(O)CC3(O)CC(O)C(C(=O)OC)C(CC(O[C@@H]4O[C@H](C)[C@@H](O)[C@H](N)[C@@H]4O)/C=C/C=C/C=C/C=C/C=C/C=C/C=C/C2C)O3)cc1 (stereo not given in full) | 106.0 | 102.6 | -10.8 | /
N#CCCn1cc(C(N)=O)c(-c2ccccc2)n1 | 82.9 | 99.2 | / | 106.9
CCOC(=O)c1c(C)n(Cc2ccccc2)c2ccc(OCC(O)CN3CCOCC3)cc12 (stereo not given) | / | / | -1.3 | 107.6
COCCCNC1CC2CCC1C2 (stereo not given) | 104.2 | 112.3 | -5.5 | 108.9
Cc1ccc(C2N3CC(C)(C)CN23)cc1 (stereo not given) | 89.1 | 93.7 | -0.5 | 101.5
O=C(Nc1cccnc1)c1c(O)c2ccccc2n(Cc2ccccc2)c1=O | 95.6 | 82.8 | -11.3 | 102.4
CCOC(=O)C1CCN(/C=C2/C(=O)NC(=O)N(c3ccc(OCC)cc3)C2=O)CC1 | 96.8 | 97.6 | -6.7 | 104.3
Cc1oc(-c2cccs2)nc1CSCC(=O)N1CCC2(CC1)OCCO2 | 93.0 | 84.9 | / | 94.9
O=C(Nc1ccc(Cl)cc1C(=O)c1ccccc1)c1ccccc1Br | 102.2 | 91.0 | -0.1 | 105.8
CC(C)N1CCC2(CC1)NC(=O)c1ccccc1O2 | 92.1 | 89.6 | / | 105.6
CCN1CCN(Cc2ccc(Cl)cc2)CC1 | 101.2 | 85.2 | 0.1 | 101.5
O=S1(=O)CC2(N3CCOCC3)CCCCC21 (stereo not given) | 108.3 | 107.5 | -26.0 | 101.4

Structures shown so far that have a Cl atom (14):
SMILES | Sa growth 42C | Sa growth 42C second temp | HCMV UL50-53 inh | GIV-Gai inh
O=C(CSC1=NCCS1)Nc1ccc(Br)cc1C(=O)c1ccccc1Cl | 61.7 | 79.1 | -10.8 | /
CN(C)C(=O)Oc1nnc(SCc2ccccc2)n1-c1cccc(Cl)c1 | 105.8 | 59.2 | -1.0 | 98.0
O=c1c2ccccc2nc(/C=C/c2c[nH]c3ccccc23)n1-c1ccc(Cl)cc1 | / | / | 16.4 | 106.6
CN1C2C=C(N(C(=O)c3ccc(Cl)cc3)c3ccccc3)CC1CC2 (stereo not given) | 113.6 | 102.4 | / | 98.7
COc1ccc(NC(=O)CCc2nc(C3=CCN(Cc4cccc(Cl)c4)CC3)no2)cc1OC | 100.7 | 90.6 | / | 104.2
CC(C)C(C(=O)O)c1ccc(Cl)cc1 (stereo not given) | 109.8 | 104.3 | 2.6 | /
Cc1cc(=O)oc2cc(OC(=O)N(C)C)c(Cl)cc12 | 111.5 | 96.1 | 5.9 | 99.5
O=C1CN=C(c2ccccc2Cl)c2cc(Cl)ccc2N1Cc1cccc(Cl)c1 | 96.0 | 96.6 | / | 107.8
Cc1nc(-c2ccccn2)nc(NCCc2ccccc2)c1Cl | 150.3 | 57.5 | -1.2&-25.2 | 109.5
Cc1c(Br)c([N+](=O)[O-])nn1CC(=O)Nc1ccc(Cl)cc1C(=O)c1ccccc1 | / | / | -24.5 | 91.6
Cc1ccc(S(=O)(=O)N[C@@H](CCCCN)C(=O)CCl)cc1 | / | / | -0.9&-0.9&-5.6 | 98.1
Cc1nn(-c2cccc(Cl)c2)c2c1C(c1ccsc1)SCC(=O)N2 (stereo not given) | / | / | 9.6 | 103.9
O=C(Nc1ccc(Cl)cc1C(=O)c1ccccc1)c1ccccc1Br | 102.2 | 91.0 | -0.1 | 105.8
CCN1CCN(Cc2ccc(Cl)cc2)CC1 | 101.2 | 85.2 | 0.1 | 101.5

Some of the compounds tested; the hit share may differ from the screen's.
